Rango-impB inh: inhibitors of Rango-importin beta complex formation. Q14974. Rango CFP/YFP FRET sensor + importin beta, 45 min. Potency, µM (highest dose often 92.2 µM), inactives show top-dose inhibition of complex formation. 0.031% of 340,000 active. AID 540263; active = rising FRET ratio curve, often small or poorly fitted; inconclusive = mostly compound fluorescence or quenching in the first reads; inactive = flat curves in all reads;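 also: potency is read from the fitted curve at half-maximal effect; 0% = DMSO wells and 100% = buffer wells lacking importin beta; nearly all actives have a fitted effect of over 15% in size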
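Inhibition scored from the CFP 486 nm/YFP 530 nm FRET ratio 45 min after adding 0.125 microM importin beta to 50 nM Rango biosensor preincubated 5 min with compound (room temperature, PBS with DTT, Tween-20, BSA). No-importin wells as positive control.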
Rango dissoc inh: inhibitors of RanGTP-induced Rango-importin beta complex dissociation | 0.071% of 340,000 active | Potency, µM (series often up to 46.1 µM), for inactives: top-dose activity change, negative = inhibition | Biochemical FRET Rango-importin beta, RanGTP-induced dissociation | O95149+P62826; active means falling FRET ratio curve, often poorly fitted, with flat reads before Ran was added; inconclusive means other falling curves, or compound fluorescence or quenching; inactive means flat or rising ratio curve;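 also: potency is read from the fitted curve at half-maximal effect; % of control where 0% means no effect; nearly all actives have a fitted effect of over 45% in size; -100% = wells without RanGTP and RCC1; the record marks most hits as doubtful in a second field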
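FRET read at 45 min, room temperature: inhibitors block the CFP/YFP signal rise when RanGTP (0.6 uM Ran, 2 mM GTP, 0.2 uM RCC1) frees Rango (0.1 uM) from importin beta (0.25 uM). Pre-read after 5 min compound exposure flags interference.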
miR-21 reporter: raises the signal of a miR-21 reporter. HeLa miR-21 FLuc reporter, luciferase, 48 h. Potency, µM (top dose mostly 38.3 µM), for the others: at the highest dose reporter change, positive = more light. 340,000 tested, under 10 active. AID 2288; active = well fitted rising curve with a large enough effect; inconclusive = small, poorly fitted or top-dose-only effect; inactive = no such curve, though single readings can be large or run the other way;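 also: % of control where 0% means no effect; miR-21 action dims this reporter so a rising signal means less miR-21 action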
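HeLa cells endogenously expressing miR-21, stably carrying CMV-driven firefly luciferase with a downstream miR-21 binding site, 2000 cells/well. Titrations up to approximately 40 uM, 48 hours; luciferase luminescence read.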
GLA inh pH 4.5: inhibitors of human alpha-galactosidase A at pH 4.5; 230,000 tested, under 10 active; purified enzyme, 4-MU-alpha-Gal fluorescence, pH 4.5; activity change, negative = inhibition, % at 105 µM; inconclusive = small, poorly fitted or top-dose-only inhibition, or a rising curve; inactive = flat fitted curve, though single readings scatter; no compound was filed as active;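 also: 0% = full activity with enzyme and -100% = basal without enzyme; dose as in the result columns while the protocol names 77 µM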
Target sequence (P06280 whole entry, looked up): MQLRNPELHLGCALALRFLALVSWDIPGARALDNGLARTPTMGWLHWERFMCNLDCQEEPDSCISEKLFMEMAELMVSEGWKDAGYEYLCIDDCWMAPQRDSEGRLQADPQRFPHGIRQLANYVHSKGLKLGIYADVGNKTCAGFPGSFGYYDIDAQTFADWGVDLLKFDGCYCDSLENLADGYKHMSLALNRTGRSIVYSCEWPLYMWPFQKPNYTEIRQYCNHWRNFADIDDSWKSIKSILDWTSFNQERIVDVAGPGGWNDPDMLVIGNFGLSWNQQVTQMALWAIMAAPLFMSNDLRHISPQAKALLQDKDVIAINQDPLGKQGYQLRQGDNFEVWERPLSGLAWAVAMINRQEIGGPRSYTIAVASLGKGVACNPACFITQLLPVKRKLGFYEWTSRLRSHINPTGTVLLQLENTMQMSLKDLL
* = called active by the depositor; ? = inconclusive; · = no result given; & = joins results of further samples. An excerpt. The share of hits here may be higher or lower than overall.

SMILES | Rango-impB inh | Rango dissoc inh | miR-21 reporter | GLA inh pH 4.5
CCOc1ccc2nc(SCC(=O)NCC3CCCO3)sc2c1 (stereo unspecified) | -3.2% | -11% | · | ·
COc1ccc(S(=O)(=O)Cc2ccc(C(=O)N3CCC(C(N)=O)CC3)o2)cc1 | 1.7% | 21% | 1% | -13
COC(=O)c1cc(OC)c(OC)cc1NC(=O)c1ccco1 | 7.3% | 9% | -6% | 1
CCOc1c(CNCCNC(=O)c2nonc2N)cccc1OC | 3.6% | -15% | -5% | 1
Cc1ccc(S(=O)(=O)CCC(=O)c2ccc(O)cc2O)cc1 | -1.8% | ? | ? | 1
CCn1cc(C(=O)OCC(=O)Nc2cc(S(=O)(=O)N(C)C)ccc2C)c(=O)c2ccc(C)nc21 | -5.7% | 1% | -6% | 4
CCOc1ccc(/C(O)=C2/C(=O)C(=O)N(c3ccccn3)C2c2ccc(Cl)cc2)c(C)c1 (stereo unspecified) | 3.3% | ? | -23% | ·
CCN(CC(=O)Nc1ccc(NC(C)=O)cc1)C(=O)COc1ccc(C(=O)c2ccccc2)cc1 | -1.2% | 1% | 11% | 3
O=C(Nc1ccccc1)c1cnc2n(c1=O)CCS2 | -2.0% | 8% | -33% | -6
N#Cc1ccc(Cl)cc1NC(=O)CSc1cccc[n+]1[O-] | 4.0% | 15% | · | ·
COc1cc(-c2nnc3n(CCc4ccccc4)c(=O)c4ccccc4n23)cc(OC)c1OC | -4.5% | -1% | -5% | -8
CCN(CC)S(=O)(=O)c1cc(NC(=O)CCn2[nH]c(=O)ccc2=O)ccc1C | 0.4% | -15% | · | ·
Cc1cc(C)n(-c2cc(-c3ccccc3)nc(C)n2)n1 | 3.6% | 0% | 0% | -2
Nn1c(SCC(=O)Nc2nccs2)nncc1=O | ? | 13% | -2% | -6
O=C(NC1=NCCS1)c1ccc(Cl)s1 | -3.8% | -13% | -52% | 2
CNc1nc(SC)nc(N(C#N)CC(=O)OC)n1 | -5.7% | -2% | -2% | -9
C=C(C)C1CC=C(CN2CC(C)OC(C)C2)CC1 (stereo unspecified) | 0.3% | 2% | -1% | -5
COc1ccc(-c2noc(CSc3nnc(-c4ccncc4)n3-c3ccc(F)cc3)n2)cc1OC | 1.4% | -1% | 5% | -9
COc1ccccc1NC(=O)/C(C#N)=C/c1ccncc1 | -0.2% | 0% | 15% | ·
COc1ccc(S(=O)(=O)Nc2ccccc2C(=O)NC(C)(C)C)cc1OC | 4.7% | 5% | 1% | -7
C=C(C(=O)c1ccccc1)C(C)C(=C)C(=O)c1ccccc1 | 0.2% | 10% | ? | -8
O=C(CSc1ncnc2ccccc12)Nc1cc(S(=O)(=O)N2CCCCC2)ccc1Cl | -3.6% | 17% | 1% | -2
COc1ccc(Br)cc1CN(C)C(=O)C1=CC=CN2CCS(=O)(=O)N=C12 | 2.9% | 13% | · | ·
COc1cccc(NC(=O)Cn2nnc(C(=O)Nc3cc(Cl)ccc3OC)c2N)c1 | 2.0% | 15% | -3% | ·
Cc1ccc2nc(-c3ccccc3)cc(C(=O)NCC3CCCO3)c2c1 (stereo unspecified) | 0.0% | 9% | -3% | 4
COc1cc2[nH]c(=O)n(Cc3ccc(C(=O)NC4CCCC4)cc3)c(=O)c2cc1OC | -0.9% | -7% | -4% | 9
NC(=O)C(c1cccc(Cl)c1)c1ncc(C(F)(F)F)cc1Cl (stereo unspecified) | -0.7% | -19% | 0% | 8
CC(C)(C)NC(=O)COc1ccc(CNCc2cccnc2)cc1 | -0.2% | 0% | -1% | 5
N#CCSc1nc2cc(C(=O)N3CCC(C(N)=O)CC3)ccc2c2nc3ccccc3n12 | -3.3% | -4% | -8% | -15
CCCN(CC1CC1)C(=O)COC(=O)c1ccc(C)cc1O | -0.4% | -14% | · | ·
Cc1ccc2[nH]c3c(c2c1)CN(C(=O)CN1CCN(Cc2ccc4c(c2)OCO4)CC1)CC3 | ? | ? | 3% | 4
CCOC(=O)c1nn(-c2ccc(C)c(Cl)c2)c(=O)c(C#N)c1C | 0.0% | -7% | 2% | ·
COc1nc(-c2ccc(Cl)cc2)ccc1-c1noc(-c2ccco2)n1 | 0.4% | -9% | -8% | 4
CCOc1ccccc1-n1c(SCC(=O)N2CCCC2)nnc1-c1ccc(O)cc1 | -0.1% | 9% | 3% | 4
CC1CCCN(S(=O)(=O)c2ccc(C(=O)Nc3nnc(-c4ccco4)o3)cc2)C1 (stereo unspecified) | 0.4% | -4% | 2% | ·
COc1ccc(-c2oc(=O)c3cc(OC)c(OC)cc3c2-c2cc(F)cc(OC)c2)cc1 | 0.8% | 4% | · | ·
CC(C)[C@H](NC(=O)c1ccccc1)C(=O)OCC(=O)NCc1ccc(F)cc1 | 0.0% | 1% | 2% | 2
C[C@@H]1CN([C@H](C)CO)C(=O)c2cc(NC(=O)Cc3cn(C)c4ccccc34)ccc2O[C@H]1CN(C)S(=O)(=O)c1ccc(F)cc1 | -0.1% | 5% | · | ·
CCOc1ccccc1N1CCN(C(=O)CC(C)(C)C)CC1 | -2.3% | -3% | 1% | 3
O=C(Cc1ccccc1)Nc1ccc(NC(=O)c2cccc(Cl)c2)cc1 | ? | 6% | -24% | -3
O=C(Cn1cnc2c(NCc3ccccc3)ncnc21)NCc1nc2ccccc2[nH]1 | 2.3% | -10% | · | ·
COc1cc(-c2ccc3oc(-c4ccsc4)cc3c2)cc(OC)c1OC | -4.9% | 12% | · | ·
N#Cc1c(-c2cccs2)cc(-c2cccs2)[nH]c1=O | ? | -18% | 1% | 24
Cc1cn(S(=O)(=O)c2cc(Br)ccc2Br)cn1 | -3.8% | 2% | 1% | -3
COc1cccc(C2=NOC(C(=O)Nc3cccnc3Cl)C2)c1OC (stereo unspecified) | -5.4% | 11% | -5% | 8
Cc1cc(Nc2cccc([N+](=O)[O-])c2)c2ccccc2n1 | -0.3% | 5% | 4% | 6
COc1ccc(NC(=O)Nc2ccc3c(c2)C(=O)N([C@H](C)CO)C[C@H](C)[C@@H](CN(C)C(=O)Nc2c(C)noc2C)O3)cc1 | -2.8% | 1% | · | ·
COc1ccc(NS(=O)(=O)c2cccc(C(=O)NCC(c3ccc(F)cc3)N3CCOCC3)c2)cc1 (stereo unspecified) | -2.1% | 14% | 9% | ·
COc1ccccc1CNC(=O)CN1C(=O)COc2ccc(S(=O)(=O)N3CCCCC3)cc21 | 0.0% | 5% | -3%&-4% | ·
CC(=O)Nc1ccc(OCC(O)Cn2nc(C)nc2C)cc1 (stereo unspecified) | 2.4% | -11% | -4% | 7
COc1cccc(NS(=O)(=O)c2cc3c4c(c2)CCC(=O)N4CCC3)c1 | 0.1% | 2% | · | ·
Cc1ccc(-c2nc(NC(=O)CSc3ncn[nH]3)ns2)cc1 | 1.9% | -11% | -28% | 2
COC(=O)C[C@H]1c2cc(F)ccc2S(=O)(=O)N1C(C)C | 0.9% | 2% | · | ·
Cc1cc(C)c2oc(C(=O)NCCc3ccc(S(N)(=O)=O)cc3)cc(=O)c2c1 | 0.5% | -14% | 1%&-16% | -1
CCn1c(C)nc2cc(C(=O)N/N=C/c3ccc(OC)c(O)c3)ccc21 | -0.3% | -3% | -10% | 11
COc1ccc(C(=O)NC(=S)N2CCN(c3ccccc3O)CC2)cc1 | 0.9% | -11% | · | ·
CC1(C)CC(=O)C(C2c3ccccc3S(=O)(=O)c3ccccc32)C(=O)C1 | ? | -5% | -3% | 5
O=C(c1cccn2c(=O)c3ccccc3nc12)N1CCN(Cc2ccc3c(c2)OCO3)CC1 | ? | ? | -7% | -8
O=C(O)CC/C(=N/NC(=O)c1cccs1)c1ccccc1 | -3.0% | 5% | -79% | 1
CCOC(=O)Cn1nc(C)c(NC(=O)CCc2ccc(OC)cc2)c1C | -1.2% | 8% | 0% | 1

Ordered by length of the SMILES (highest first): 3 of the compounds above
SMILES | Rango-impB inh | Rango dissoc inh | miR-21 reporter | GLA inh pH 4.5
O=C(c1cccn2c(=O)c3ccccc3nc12)N1CCN(Cc2ccc3c(c2)OCO3)CC1 | ? | ? | -7% | -8
Cc1cc(C)c2oc(C(=O)NCCc3ccc(S(N)(=O)=O)cc3)cc(=O)c2c1 | 0.5% | -14% | 1%&-16% | -1
COc1ccc(C(=O)NC(=S)N2CCN(c3ccccc3O)CC2)cc1 | 0.9% | -11% | · | ·

(more compounds)
SMILES | Rango-impB inh | Rango dissoc inh | miR-21 reporter | GLA inh pH 4.5
CCNC(=O)NC(=O)C(C)On1nnc2ccc(S(=O)(=O)N(CC)CC)cc21 (stereo unspecified) | -5.0% | 5% | -18% | -3
COc1ccc(-c2cc(=O)oc3c(C)c(OCC(=O)N(C)C)ccc23)cc1 | -0.5% | -1% | -7% | ·
COc1ccc(C(=O)NCCc2cn3ccc(C)cc3n2)cc1 | 0.6% | 8% | -6% | -6
O=C1CCN(Cc2ccc(Br)cc2)CCN1[C@H](CO)Cc1ccccc1 | 2.5% | 10% | 14% | ·
CC(=O)Nc1ccc(OCC(O)Cn2c(CO)nc3ccccc32)cc1 (stereo unspecified) | -0.6% | -8% | -2% | 4
COc1ccc(OC)c(/C=C/C(=O)N2C(=O)c3cccc(N)c3C2=O)c1 | ? | ? | -2% | 4
Cc1ccc(OCC2Cn3c(nc4c3c(=O)[nH]c(=O)n4C)O2)cc1 (stereo unspecified) | -1.1% | -10% | -2% | 1
O=C(Nc1ccc(N2CCCCC2)cc1)c1cccnc1 | -1.9% | 14% | -51% | -4
CCC(C)(C)NC(=O)C(c1cccn1C)N(C(=O)Cn1nnc2ccccc21)c1ccccc1OC (stereo unspecified) | -3.1% | 9% | 0% | 2
COc1ccc2oc(C(=O)NCc3cc(OC)c(OC)cc3OC)c(C)c2c1 | -4.6% | 0% | 0% | ·
O=C(c1ccc(-n2cncn2)c([N+](=O)[O-])c1)N1CCN(S(=O)(=O)c2cccc(F)c2)CC1 | -3.6% | 3% | · | ·
CCOC(=O)c1sc(NC(=O)CCN2C(=O)C3CCCCC3C2=O)cc1C (stereo unspecified) | 1.5% | -4% | · | ·

Structures shown so far with an aryl thioether with sulfur outside any ring:
SMILES | Rango-impB inh | Rango dissoc inh | miR-21 reporter | GLA inh pH 4.5
CCOc1ccc2nc(SCC(=O)NCC3CCCO3)sc2c1 (stereo unspecified) | -3.2% | -11% | · | ·
N#Cc1ccc(Cl)cc1NC(=O)CSc1cccc[n+]1[O-] | 4.0% | 15% | · | ·
Nn1c(SCC(=O)Nc2nccs2)nncc1=O | ? | 13% | -2% | -6
CNc1nc(SC)nc(N(C#N)CC(=O)OC)n1 | -5.7% | -2% | -2% | -9
COc1ccc(-c2noc(CSc3nnc(-c4ccncc4)n3-c3ccc(F)cc3)n2)cc1OC | 1.4% | -1% | 5% | -9
O=C(CSc1ncnc2ccccc12)Nc1cc(S(=O)(=O)N2CCCCC2)ccc1Cl | -3.6% | 17% | 1% | -2
N#CCSc1nc2cc(C(=O)N3CCC(C(N)=O)CC3)ccc2c2nc3ccccc3n12 | -3.3% | -4% | -8% | -15
CCOc1ccccc1-n1c(SCC(=O)N2CCCC2)nnc1-c1ccc(O)cc1 | -0.1% | 9% | 3% | 4
Cc1ccc(-c2nc(NC(=O)CSc3ncn[nH]3)ns2)cc1 | 1.9% | -11% | -28% | 2

Bioassay records (PubChem)
